miR-21 FLuc – miR-21 reporter, rising signal | AID 2288 | HeLa miR-21 FLuc reporter, luciferase, 48 h | 340,000 tested, under 10 active | Potency, µM (titrated, usually from 38.3 µM), for the others: at the top dose reporter change, positive = more light; active = well fitted rising curve with a large enough effect; inconclusive = small, poorly fitted or top-dose-only effect; inactive = no such curve, though single readings can be large or run the other way;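 also: % of control where 0% means no effect; miR-21 action dims this reporter so a rising signal means less miR-21 action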
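Luminescence from a firefly luciferase reporter carrying a miR-21 binding site downstream, stably expressed under a CMV promoter in HeLa cells that make miR-21 endogenously, reports miRNA modulation after 48 h compound exposure up to approximately 40uM final.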
Rango complex inh – inhibitors of Rango-importin beta complex formation. Q14974. Rango CFP/YFP FRET sensor + importin beta, 45 min. Potency, µM (top dose mostly 92.2 µM), for inactives: at the top dose inhibition of complex formation. 0.031% of 340,000 active. AID 540263; active = rising FRET ratio curve, often small or poorly fitted; inconclusive = mostly compound fluorescence or quenching in the first reads; inactive = flat curves in all reads;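 also: potency is read from the fitted curve at half-maximal effect; 0% = DMSO wells and 100% = buffer wells lacking importin beta; nearly all actives have a fitted effect of over 15% in size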
Target sequence (Q14974 whole entry, looked up): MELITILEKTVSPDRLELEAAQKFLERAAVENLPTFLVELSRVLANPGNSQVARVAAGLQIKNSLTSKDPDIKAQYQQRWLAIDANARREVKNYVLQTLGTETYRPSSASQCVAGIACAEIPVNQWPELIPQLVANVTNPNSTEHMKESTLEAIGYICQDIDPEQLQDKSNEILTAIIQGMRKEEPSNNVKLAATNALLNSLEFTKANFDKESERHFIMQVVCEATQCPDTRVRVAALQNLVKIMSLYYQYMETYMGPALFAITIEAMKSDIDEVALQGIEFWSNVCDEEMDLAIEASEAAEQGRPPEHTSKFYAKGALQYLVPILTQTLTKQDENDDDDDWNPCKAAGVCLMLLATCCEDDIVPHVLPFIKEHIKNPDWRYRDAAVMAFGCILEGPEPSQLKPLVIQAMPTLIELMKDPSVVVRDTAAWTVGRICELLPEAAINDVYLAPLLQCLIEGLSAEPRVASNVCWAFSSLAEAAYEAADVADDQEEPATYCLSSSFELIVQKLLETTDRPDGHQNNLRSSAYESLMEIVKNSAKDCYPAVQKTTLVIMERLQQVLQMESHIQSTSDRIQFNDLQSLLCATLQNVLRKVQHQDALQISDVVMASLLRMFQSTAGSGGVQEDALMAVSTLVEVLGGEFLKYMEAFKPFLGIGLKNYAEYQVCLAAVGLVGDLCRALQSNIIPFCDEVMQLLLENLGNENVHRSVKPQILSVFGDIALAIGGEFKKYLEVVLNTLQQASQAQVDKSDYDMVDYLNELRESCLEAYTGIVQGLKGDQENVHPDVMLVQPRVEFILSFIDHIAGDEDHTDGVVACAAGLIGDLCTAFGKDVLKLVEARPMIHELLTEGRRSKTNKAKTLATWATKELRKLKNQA
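Inhibition scored from the CFP 486 nm/YFP 530 nm FRET ratio 45 min after adding 0.125 microM importin beta to 50 nM Rango biosensor preincubated 5 min with compound (room temperature, PBS with DTT, Tween-20, BSA). No-importin wells as positive control.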
Rango dissoc inh – prevents RanGTP from dissociating the Rango-importin beta complex | Biochemical FRET Rango-importin beta, RanGTP-induced dissociation | 0.071% of 340,000 active | Potency, µM (titrated, usually from 46.1 µM), inactives show at the top dose activity change, negative = inhibition | AID 540253; active means falling FRET ratio curve, often poorly fitted, with flat reads before Ran was added; inconclusive means other falling curves, or compound fluorescence or quenching; inactive means flat or rising ratio curve;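 also: potency is read from the fitted curve at half-maximal effect; % of control where 0% means no effect; nearly all actives have a fitted effect of over 45% in size; -100% = wells without RanGTP and RCC1; the record marks most hits as doubtful in a second field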
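Rango FRET biosensor (snurportin-1 IBB flanked by N-terminal EYFP and C-terminal CFP10) at 0.1 uM, with 0.25 uM importin beta in PBS, 1mM DTT, 0.02% Tween-20, 0.1% BSA. 0.6 uM Ran, 2mM GTP and 0.2 uM RCC1 were then added for 45 min at room temperature. Inhibition read as loss of FRET rise.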
GLA inh pH 4.5 – inhibitors of human alpha-galactosidase A at pH 4.5; P06280; purified enzyme, 4-MU-alpha-Gal fluorescence, pH 4.5; activity change, negative = inhibition, % at 105 µM; 230,000 tested, under 10 active; AID 1467; inconclusive = small, poorly fitted or top-dose-only inhibition, or a rising curve; inactive = flat fitted curve, though single readings scatter; no compound was filed as active;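 also: 0% = full activity with enzyme and -100% = basal without enzyme; dose as in the result columns while the protocol names 77 µM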
* = called active by the depositor; u = inconclusive; x = no result given.

Compound	miR-21 FLuc	Rango complex inh	Rango dissoc inh	GLA inh pH 4.5
COc1ccccc1NS(=O)(=O)c1ccc(Cl)c(NC(=O)C(C)N2C(=O)c3ccccc3C2=O)c1 (stereo not drawn)	1.3%	-1.7%	-12.8%	-14.8
Cc1ccc(O)c(CNc2nc3ccccc3n2C(C)C)c1	2.4%	-3.5%	20.1%	x
COc1ccc(C2c3[nH]c4ccccc4c3C[C@H]3C(=O)N(c4ccccc4C(=O)N4CCC[C@H]4C(=O)O)C(=O)N23)cc1 (stereo partly drawn)	-4.8%	u	u	x
Cc1cc2c(ncn2C(C)C)c(NS(=O)(=O)c2ccc(F)cc2)c1C	-1.2%	-1.8%	9.9%	4.9
Cc1cc(=O)n2nc(N3CCCC(C(=O)NCc4ccc(Cl)cc4)C3)sc2n1 (stereo not drawn)	2.5%	2.5%	-6.6%	x
CC(C)(C)C(=O)NC(n1cnc2c(N3CCOCC3)ncnc21)C(Cl)(Cl)Cl (stereo not drawn)	-0.4%	-2.1%	7.7%	-2.8
COc1cc(C(C)=O)ccc1Oc1ncnc2c1cnn2-c1ccc(C)c(C)c1	-28.9%	-1.4%	-11.4%	-1.5
CC(=O)N1CCc2[nH]c3ccccc3c2C1	-1.7%	u	1.7%	-3.8
COC(=O)CCCC(=O)N1CCCC(CCC(=O)NCc2ccc(F)c(F)c2)C1 (stereo not drawn)	8.4%	0.1%	1.7%	5.3
CCC1CN(C(=O)N2CCC(C(=O)Nc3ccccc3OC)CC2)c2ccccc2O1 (stereo not drawn)	13.3%	-5.8%	-0.9%	x
CN(CC(=O)Nc1cccc(F)c1)C(=O)c1ccccc1Cc1ccccc1	x	-5.3%	u	x
O=C(CSc1ccc(-c2ccccn2)nn1)N1CCCCC1	-14.4%	2.5%	3.6%	-22.9
CCOC(=O)c1oc2ccccc2c1NC(=O)c1ccco1	4.4%	1.5%	-9.2%	x
COc1ccc(Oc2cn[nH]c2-c2ccc(OC)cc2O)cc1	-7.2%	2.0%	-5.8%	x
CCOc1ncccc1C(=O)OCc1c(F)cccc1Cl	-6.9%	0.5%	12.3%	7.8

Exported field by field: 2 of the compounds above
mol: COc1ccc(C2c3[nH]c4ccccc4c3C[C@H]3C(=O)N(c4ccccc4C(=O)N4CCC[C@H]4C(=O)O)C(=O)N23)cc1 (stereo partly drawn)
  miR-21 FLuc: -4.8%
  Rango complex inh: u
  Rango dissoc inh: u
  GLA inh pH 4.5: x
mol: Cc1cc2c(ncn2C(C)C)c(NS(=O)(=O)c2ccc(F)cc2)c1C
  miR-21 FLuc: -1.2%
  Rango complex inh: -1.8%
  Rango dissoc inh: 9.9%
  GLA inh pH 4.5: 4.9

(list continues)
Compound	miR-21 FLuc	Rango complex inh	Rango dissoc inh	GLA inh pH 4.5
CN(C(=O)COC(=O)Cc1c(Cl)cccc1Cl)C1CCS(=O)(=O)C1 (stereo not drawn)	x	-1.6%	2.5%	x
Nc1cccnc1-n1nc(C(F)(F)F)cc1C(F)(F)F	0.0%	-0.3%	0.8%	0.0
O=C(O)CN(c1ccccn1)S(=O)(=O)c1ccc(Cl)cc1	1.5%	-1.0%	-16.4%	3.4
CCOC(=O)C1CCN(C(=O)CN(c2ccc(Oc3ccccc3)cc2)S(C)(=O)=O)CC1	0.6%	-3.9%	0.2%	6.5
CCOC(=O)c1c(NC(=O)CC2SC(N)=NC2=O)sc2c1CCC(C)C2 (stereo not drawn)	-15.5%	2.5%	-18.8%	-9.3
CN1C(=O)/C(=C/c2ccccc2Cl)Sc2ccc(C(=O)NCc3cccnc3)cc21	-1.0%	u	-2.8%	-5.0
O=C(c1cc(C(=O)c2ccco2)cc(C(=O)c2ccco2)c1)c1ccco1	-8.5%	-0.4%	-0.2%	0.7
CCCCNC(=O)c1[nH]c(C)c(C(C)=O)c1C	-4.4%	-0.9%	22.4%	-5.7
O=C(Nc1ccc(O)cc1)N1CCOCC1	-12.1%	-0.2%	-0.2%	x
CCOc1ccccc1NC(=O)CCCCCN1C(=O)[C@@H]2Cc3ccccc3CN2C1=O	3.8%	1.0%	-9.6%	x
COc1cccc(OCc2cc(C(=O)N(Cc3ccccc3)CC3CC3)no2)c1	2.4%	-1.1%	-16.1%	x
CCCCSc1nc2sc3c(c2c(=O)n1-c1ccccc1)CCN(C)C3	4.7%	-0.7%	5.7%	x
O=C(CCc1nc2ccccc2c(=O)[nH]1)NC1CCN(Cc2ccccc2)CC1	-1.8%	-1.2%	1.0%	9.3
CC(=O)Cn1c(=O)c2c(nc3n2CCCN3Cc2ccccc2)n(C)c1=O	3.7%	2.7%	7.5%	x
COc1ccc(S(=O)(=O)N2CCN(C(=O)N(C)C)C2C)cc1 (stereo not drawn)	-0.5%	-1.0%	14.2%	x
O=C(NC(=S)Nc1ncccn1)c1ccc(Cl)cc1Cl	-48.9%	1.3%	20.1%	-1.7
O=C(N/N=C/c1cccnc1)c1cccc(NC(=O)c2ccc(Cl)cc2)c1	1.4%	-0.4%	-7.3%	x
CCOc1ccc(C2CC(c3ccc(CC)cc3)Nc3nc(N)nn32)cc1 (stereo not drawn)	-14.7%	4.1%	10.0%	1.5
NC1=NC2CS(=O)(=O)CC2S1 (stereo not drawn)	0.1%	0.3%	11.2%	-4.4
CCCCN1C(=N)N([C@@H](C)CN2CCC[C@H]2CN2C(N)=NC[C@@H]2Cc2ccccc2)C[C@H]1Cc1ccccc1	x	-2.3%	-5.2%	x
COCCNC(=O)C1CC2Cn3c(nc4cc5ccccc5cc43)C2N1C (stereo not drawn)	-8.2%	2.6%	-19.6%	4.9
NS(=O)(=O)c1ccc(S(=O)(=O)N(CCc2ccccc2)Cc2ccccn2)cc1	0.7%	-0.4%	13.0%	x
Cn1c(=O)cc(OCC(=O)NCCCN2CCN(c3ccccc3F)CC2)c2ccccc21	3.8%	-0.2%	4.3%	5.3
COc1ccc(-n2nc(C(=O)NCC(=O)N3CCN(C)CC3)c3ccccc3c2=O)cc1OC	-1.8%	3.1%	3.2%	3.0
Cc1ccn(CCC(=O)N2c3ccccc3CC2C)n1 (stereo not drawn)	-1.0%	1.4%	0.4%	x
CCOC(=O)C1CCCN(C(=O)CN(c2ccc(OC)cc2)S(=O)(=O)c2c(C)noc2C)C1 (stereo not drawn)	-3.5%	0.2%	6.5%	-8.5
CCc1ccccc1N(CC(=O)N1CCN(c2ccccc2F)CC1)S(C)(=O)=O	0.6%	-1.4%	-10.0%	-3.5
N/C(=N\OC(=O)c1ccc2ccccc2c1)c1ccncc1	-60.4%	-0.6%	2.0%	-16.8
COc1ccc(C(=O)COC(=O)C2CCCN2C(=O)C23CC4CC(CC(C4)C2)C3)cc1 (stereo not drawn)	-7.2%	5.6%	5.1%	-1.4
O=C1c2cc(S(=O)(=O)N(CCO)CCO)ccc2-c2ccc(S(=O)(=O)N(CCO)CCO)cc21	x	-1.5%	-24.7%	x

Continued:
Results follow in this order: miR-21 FLuc | Rango complex inh | Rango dissoc inh | GLA inh pH 4.5
CCc1nnc(NC(=O)c2ccc(-c3ccccc3F)o2)s1
    -10.5% | -0.2% | 6.5% | -24.4
Cc1cc(C(=O)NC(C)C2CC2)c(Cl)cc1Cl (stereo not drawn)
    -7.1% | -3.2% | -12.0% | x
CN(C)/C(=N\O)c1c(Cl)cccc1Cl
    -0.7% | -0.2% | 13.7% | -6.4
CNC(=O)c1ccc(NC(=O)/C=C/c2cccc(F)c2)cc1
    -67.4% | 0.3% | 17.1% | 2.8
Cc1onc(-c2ccccc2)c1C(=O)NCCCc1ccccc1
    x | -2.6% | 1.3% | x
C[N+]1(CC(=O)NNc2c3ccccc3nc3ccccc23)CCOCC1
    1.2% | x | x | 9.0
Cc1ccc(-c2nnc3c4ccccc4c(C)nn23)cc1S(=O)(=O)N1CCN(CCO)CC1
    -17.7% | -5.3% | 0.1% | 6.5
Clc1ccccc1Cn1nnc2ccccc21
    -15.9% | -4.5% | 2.5% | x
Cc1ccc(S(=O)(=O)Nc2ccc(Cl)cn2)cc1C
    -4.8% | -4.5% | -10.3% | x
CC12CCC(=O)N1C(C(=O)NNC(=O)c1ccccc1)CS2 (stereo not drawn)
    x | -0.2% | -10.8% | x
CCOc1ccc(NC(=S)N2CCC(NC(=O)c3ccco3)CC2)cc1
    0.0% | -0.6% | -6.8% | x
Cc1c(-c2ccccc2)nc(N)c(C#N)c1-c1ccco1
    -11.7% | 0.1% | -6.7% | 2.1
Cc1ccc(OCC(=O)O)c(-n2nc3ccccc3n2)c1
    -2.9% | -0.7% | 0.8% | -2.5
COc1ccccc1OCCCOc1c(C)cc(C)cc1Br
    -2.5% | -2.5% | -22.8% | -10.9
Oc1ccc2ccccc2c1CNc1ccccn1
    4.0% | -2.9% | 7.9% | x
CC1CCCCN1CCNC(=O)c1ccc2c(=O)n(CCc3ccccc3)c(=O)[nH]c2c1 (stereo not drawn)
    -7.1% | 11.5% | 7.3% | 29.2
CCCOn1c(OCC(C)C)nc2ccccc2c1=O
    0.7% | -0.7% | 8.8% | -5.5
COc1ccccc1C(=O)Nc1cccc(NC(=O)c2ccccc2C)c1
    6.6% | -0.1% | -7.3% | x
CCC1OC(c2ccc([N+](=O)[O-])cc2)=Nc2ccccc21 (stereo not drawn)
    -3.2% | -0.5% | 2.3% | x
O=C(CSc1ncnc2nc[nH]c12)N1CCN(c2ccccc2)CC1
    -5.1% | -3.9% | 3.3% | 7.0

Pulled by compound from above, 7 records:
Results follow in this order: miR-21 FLuc | Rango complex inh | Rango dissoc inh | GLA inh pH 4.5
CN(C)/C(=N\O)c1c(Cl)cccc1Cl
    -0.7% | -0.2% | 13.7% | -6.4
CC1CCCCN1CCNC(=O)c1ccc2c(=O)n(CCc3ccccc3)c(=O)[nH]c2c1 (stereo not drawn)
    -7.1% | 11.5% | 7.3% | 29.2
CCCOn1c(OCC(C)C)nc2ccccc2c1=O
    0.7% | -0.7% | 8.8% | -5.5
CN(C(=O)COC(=O)Cc1c(Cl)cccc1Cl)C1CCS(=O)(=O)C1 (stereo not drawn)
    x | -1.6% | 2.5% | x
Cc1ccc(S(=O)(=O)Nc2ccc(Cl)cn2)cc1C
    -4.8% | -4.5% | -10.3% | x
O=C(NC(=S)Nc1ncccn1)c1ccc(Cl)cc1Cl
    -48.9% | 1.3% | 20.1% | -1.7
N/C(=N\OC(=O)c1ccc2ccccc2c1)c1ccncc1
    -60.4% | -0.6% | 2.0% | -16.8

Next section
Results follow in this order: miR-21 FLuc | Rango complex inh | Rango dissoc inh | GLA inh pH 4.5
CCOC(=O)N1CCN(C(=O)COc2cccc3c2CCN(Cc2ccccc2C)C3=O)CC1
    -5.4% | -0.2% | -5.2% | -1.0
COc1ccc(OCCOCCN2CCc3ccccc3C2)cc1
    -4.3% | 2.8% | -4.2% | -0.1
Cc1ccc2nc3c(cc(C#N)c(=N)n3Cc3cccnc3)c(=O)n2c1
    -6.5% | x | x | 1.4
CCOc1ccc(NC(=O)C/C(N)=N/O)cc1
    0.2% | 7.6% | -12.8% | -3.8
CC(OC(=O)c1cccc(NS(C)(=O)=O)c1)C(=O)Nc1ccc(N2CCOCC2)cc1 (stereo not drawn)
    -8.2% | 6.5% | -1.0% | 5.7
CCn1cc(CN2CCCC(C(=O)Nc3ccc(-c4cscn4)cc3)C2)cn1 (stereo not drawn)
    -4.4% | -1.8% | 2.6% | x
CCc1c(C2(O)CCCCC2)[nH]c2cc(C(F)(F)F)ccc12
    u | -1.8% | 9.8% | x
COc1ccc(CNc2ncc(-c3ccccc3)n2C)cc1
    1.0% | -0.6% | 0.4% | x

Screens: PubChem BioAssay, National Center for Advancing Translational Sciences (NCATS)

This is a subset. The share of hits here may be higher or lower than overall.
